# Screening results: PubChem BioAssay, several laboratories
# BJeLR viability – MLPCN primary cell-based screen for lethality selective to Ras in HRASV12 cells | BJeLR (HRASV12) viability, CellTiter-Glo ATP luminescence, 48 h; reference of the scale not given here | inhibition, % (no concentration beside the values) | hit rate 0.17% among 300,000 | AID 1554, 2009;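 active = replicate mean above 50%; inconclusive = above 50% but judged a plate artefact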;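 also: 50 nL library stock added to about 25 µL; numbers are from one replicate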
# PrP UTR inh – inhibition of PrP 5' UTR reporter expression; AID 488862, 2010; hit rate 0.35% among 340,000; cell-based PrP 5' UTR mRNA reporter, plate reader; inhibition, % (no concentration beside the values);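 active = every replicate at 50% or more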;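 also: 0 = median of the neutral control wells; tested in H4 reporter cells; numbers are from one replicate; inactives centre near -14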
# RN4220 kill – growth inhibition of S. aureus RN4220, primary screen, OD600. 16 h. inhibition, % (test concentration not listed). hit rate 0.33% among 330,000;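 active = z-score of -3 or lower and OD600 up to 0.18 on both plates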;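 also: plate controls were untreated cells for no effect and reference antibiotic for full effect; stock transfer was 100 nL into about 80 µL; one replicate is shown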
# Mtb hypoxia rep – PubChem AID 1159583. fluorescence inhibition, % (no concentration beside the values). hit rate 0.1% among 300,000. M. tuberculosis hypoxia-regulated fluorescent reporter, fluorescence;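 active = 35 to 45% if threefold the growth effect, above 45% if 1.5-fold the growth effect; inactive = the rest, general growth blockers included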;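 also: wells of about 50 µL received 100 nL stock; 0% = vehicle wells and 100% = reference inhibitor wells; whole bacteria with a GFP reporter of the hypoxia response; strong numbers were not always called active; many hits fall short of the cut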
# Sa ugtP lethal – growth inhibition of ugtP-null S. aureus, primary screen, RN4220 ugtP deletion, OD600; 16 h; some inactives read as strong as hits; growth inhibition, % (test concentration not listed); hit rate 0.54% among 330,000; AID 1259309, 2017;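 active = z-score under -3 and OD600 up to 0.15 on both plates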;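 also: plate controls were untreated wells for no effect and antibiotic for full effect; wells of about 80 µL received 100 nL stock; the first replicate is given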
# Autofluor counter – flagged as autofluorescent in microsphere protease counterscreen; compound autofluorescence counterscreen, microsphere flow cytometry; stronger effect = higher value; fluorescence intensity (test concentration not listed); hit rate 3.1% among 360,000; AID 624483;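 active = at least 3 SD above the mean of all compounds, about 16000 in these data; inconclusive = too few beads counted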;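 also: 100 nL of 1 mM stock went into each well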
# Mtb hypoxia rep growth – recorded beside Mtb hypoxia rep, whose call it bears; growth inhibition, %; measured here: M. tuberculosis growth (absorbance);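 0% = vehicle and 100% = reference antibiotic; read after six days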
# * = called active by the depositor; ? = inconclusive; · = not tested or not shown. The order is random. About 4% of those tested had a hit in this group.
# A first look, 2 compounds:
SMILES,BJeLR viability,PrP UTR inh,RN4220 kill,Mtb hypoxia rep,Mtb hypoxia rep growth,Sa ugtP lethal,Autofluor counter
Cn1c(=O)n(C)c2cc([N+](=O)[O-])c(N3CCN(CCO)CC3)cc21,-6.2,-10.4,2.0,-4.4,6.8,4.3,4704
CCCOc1ccc(N2CC(C(=O)Nc3ccccc3C(=O)NCc3ccco3)CC2=O)cc1 (stereo not drawn),-1.4,-18.9,-0.2,3.8,7.7,6.1,12066

# The list itself, previewed entries included:
SMILES,BJeLR viability,PrP UTR inh,RN4220 kill,Mtb hypoxia rep,Mtb hypoxia rep growth,Sa ugtP lethal,Autofluor counter
Cn1c(=O)n(C)c2cc([N+](=O)[O-])c(N3CCN(CCO)CC3)cc21,-6.2,-10.4,2.0,-4.4,6.8,4.3,4704
CCCOc1ccc(N2CC(C(=O)Nc3ccccc3C(=O)NCc3ccco3)CC2=O)cc1 (stereo not drawn),-1.4,-18.9,-0.2,3.8,7.7,6.1,12066
CC1=C(C(=O)NC2CC(C)(C)Cc3c2cnn3-c2ccc(C)cc2)OCCO1 (stereo not drawn),-2.5,-14.3,-1.1,8.8,11.2,12.4,5603
O=C(O)C1SCCN1S(=O)(=O)c1ccc2ccccc2c1 (stereo not drawn),0.2,-43.1,2.3,8.1,14.2,2.5,6117
Nc1cc(C(=O)OCC(=O)NCc2ccco2)ccc1Cl,2.3,-24.8,-13.1,10.9,6.6,-4.9,2833
COCc1cc(Sc2ccc(Br)cc2)nc(-c2ccccc2)n1,10.7,-13.7,-15.4,·,·,78.3,2327
COc1ccc(OCC(=O)N/N=C/c2ccncc2)cc1,-19.0,-19.1,·,·,·,·,4472
COC(C(=O)NN=C(C)CC(=O)Nc1ccc(N(C)C)cc1)c1ccccc1 (stereo not drawn),·,·,3.1,5.7,0.5,0.5,·
CCN(CC)c1ccc(C=NOCC(=O)Nc2cccc(C)c2)cc1,·,·,5.1,-4.9,8.7,0.5,·
C=C(C)C(=O)Nc1nnc(-c2cccs2)s1,-9.2,-27.4,7.1,0.6,4.5,8.7,2072
O=C(NC(=S)NCc1ccccc1)c1ccc(Br)o1,3.0,-20.8,·,·,·,·,5549
COc1ccc(CCN2C(=O)C3C4CC(C5C(C(N)=O)=NOC45)C3C2=O)cc1OC (stereo not drawn),-7.0,7.0,3.6,·,·,-2.6,2727
Cc1ccc(C(C)C)c(OCCCN2CCc3ccccc3C2)c1,-1.0,-2.7,-2.1,-7.1,-6.4,18.6,3615
COC(=O)c1ccc2c(=O)n(CCCCCC(=O)O)c(=S)[nH]c2c1,-0.4,-7.4,7.5,3.4,5.6,-15.2,2630
CC(C)NC(=O)c1ccc(COc2ccc(C(C)(C)C)cc2)o1,1.1,-32.2,1.6,-5.8,-6.3,2.7,3472
Cc1ccc(CS(=O)(=O)Cc2ccc(C(=O)NC3CCCC3)o2)cc1,-11.4,-0.4,8.3,-2.4,6.2,18.0,4572
CC(C)CN1C=C2C(=O)C(C)(OC(=O)C3CCCC3)C(=O)C=C2C=C1c1ccsc1 (stereo not drawn),3.5,-8.2,5.6,13.5,9.9,-7.4,3366
COCCN1C=C2C(=O)C(C)(OC(=O)CCC(=O)OC)C(=O)C(Br)=C2C=C1c1ccc(OC)cc1 (stereo not drawn),-5.3,-18.3,·,·,·,·,3432
CCOCCCn1c(C)nc2c(c1=O)c1nc3ccccc3nc1n2-c1ccc2c(c1)OCCO2,-6.7,·,5.5,-14.5,5.9,7.1,·
Cc1ccc(S(=O)(=O)NC(CN2CCOCC2)=NCCNS(=O)(=O)c2ccccc2)cc1,·,-34.7,5.1,6.7,7.6,-7.8,9588
CCO[C@H]1OC(C(=O)NCc2nc3ccccc3[nH]2)=C[C@@H](c2cn(C(C)=O)c3ccccc23)[C@@H]1CCCO,-4.3,-14.7,·,·,·,·,3791
CS(=O)(=O)NCCCc1ccccc1,7.6,-5.0,-11.9,8.4,8.9,-0.4,2551
Cc1ccc(S(=O)(=O)N2CCOCC2)cc1NC(=O)Cn1nc(C)c([N+](=O)[O-])c1C,-0.4,-4.8,1.3,0.4,-10.3,0.4,?
O=C1CCc2cc(NS(=O)(=O)c3ccc(F)cc3)cc3c2N1CC3,0.5,3.5,9.0,7.7,-3.4,2.5,·
NC(=NOC(=O)c1ccc(Cl)cc1)c1nonc1N,·,·,0.8,14.4,5.5,7.9,·
O=C(COc1ccc2ccccc2c1)N1CCN(CC2CC3C=CC2C3)CC1 (stereo not drawn),13.0,-9.7,-6.9,·,·,-5.8,4157
COc1ccc(NC(=O)CSc2nc(C3CC3)nc3ccccc23)cc1,-0.7,-9.8,3.2,-1.5,7.1,8.6,5774
CCCCCCNC1=NCCS1,-0.5,-12.1,11.2,-3.6,-1.5,23.2,4631
CCOC(=O)C1CCCN(S(=O)(=O)c2ccc(Br)c(OC)c2)C1 (stereo not drawn),-3.6,-34.0,1.6,·,·,-1.6,2843
CCN(Cc1cc2ccc(C)cc2[nH]c1=O)C(=O)c1ccncc1,11.9,·,-15.1,3.1,12.7,-4.0,·
COCCNC(=O)CN(C(=O)CCC(=O)Nc1ccccn1)c1ccc(C)cc1C,-7.7,-10.4,3.3,0.5,-9.4,1.4,4052
Cc1nc2c(=O)[nH]c(=S)[nH]c2[nH]c1=O,·,-7.6,2.5,5.7,10.3,2.3,3657
C=C(C)CC1(CC)C(=O)NC(=S)NC1=O,·,·,-1.3,18.2,7.5,2.8,4091
Cc1[nH]c2ccccc2c1C(=O)COC(=O)Cn1c(C(F)(F)F)nc2ccccc21,3.5,-19.2,15.4,9.8,8.7,20.4,2691
Cc1c(CCOC(=O)CC23CC4CC(CC(C)(C4)C2)C3)sc[n+]1CC(=O)c1ccccc1,-6.7,-18.9,7.9,6.5,10.7,-22.2,4567
O=C(COC(=O)C1=COCCO1)Nc1ccccc1,6.0,-32.0,6.6,-0.2,-6.2,10.2,4885
O=C(Nc1nc2ccccc2s1)c1ccc(N2CCCCC2)c([N+](=O)[O-])c1,-0.2,-65.6,0.4,12.8,8.3,-15.3,2022
COc1ccc(C2CC(c3ccc(F)cc3)n3nc(NC(=O)c4ccco4)nc3N2)cc1 (stereo not drawn),-12.7,-24.0,3.4,-1.9,12.1,-3.3,6286
O=C(c1ccc([N+](=O)[O-])s1)N1CCc2ccccc2C1,-3.6,-10.0,12.2,1.5,5.9,1.9,4552
Cc1cccc(OCc2nnc(SCC(=O)Nc3cc(C)on3)n2C)c1,-0.9,16.1,2.0,4.9,11.3,5.0,10910
CCc1nnc(NC(=O)c2ccc(S(C)(=O)=O)cc2)s1,-21.6,-9.2,6.6,14.1,4.3,3.8,5329
CCc1sc(C(=O)N2CCN(c3ncccn3)CC2)cc1Br,-12.2,1.0,3.7,12.5,4.9,3.0,4351
O=C(CN1CCCN(Cc2ccc(F)cc2Cl)C1=O)NCc1ccccc1,-15.3,-19.4,-17.1,6.0,7.1,-2.0,2382
CC(C)(C)OC(=O)NCCCCCNC(=O)c1[nH]cnc1C(=O)Nc1ccc(Cl)cc1,·,-2.3,-7.7,9.6,12.5,-28.9,4025
Cn1c(=O)c(C#N)c(-c2ccc(F)cc2)c2cc(C(=O)c3cc(Cl)cc(Cl)c3O)cnc21,-3.6,-3.8,73.4,6.0,-4.5,84.9,4523
CCOC(=O)c1ccc(N2CN(CCc3ccccc3)CNC2=S)cc1,-1.3,-6.2,5.1,·,·,9.4,7757
Cc1[nH]n(C(N)=S)c(=O)c1N=Nc1cccc(C(F)(F)F)c1,3.5,-35.9,0.0,5.8,-0.3,1.4,3856
O=C(NN=Cc1ccncc1)c1ccc(-n2cccc2)cc1,·,·,-0.2,2.4,12.9,-7.4,·
CC(C)(Cc1cccc(CC(C)(C)C(=O)O)c1)C(=O)O,5.3,-10.1,5.3,14.6,13.3,4.4,3747
Cn1c(N)c(C(=O)COC(=O)c2cc(-c3ccco3)nc3ccccc23)c(=O)n(C)c1=O,6.3,-12.1,7.2,-5.9,17.5,-27.6,3696
CC(Oc1ccc2c3c(c(=O)oc2c1)CCC3)C(=O)NC1CCN(Cc2ccccc2)CC1 (stereo not drawn),3.9,12.4,-1.6,5.6,-9.2,10.0,6786
O=c1cc(CO)oc(C(Nc2ccccn2)c2ccc(F)cc2)c1O (stereo not drawn),4.6,-17.5,5.5,8.3,2.2,9.1,3098
Cc1cc(NC(=O)/C=C/c2ccccc2)c(C(C)C)cc1O,2.1,-16.6,-0.1,9.3,3.0,-0.2,4647
CC1CCCCC1NC(=O)CCN1C(=O)C2C3C=CC(C3)C2C1=O (stereo not drawn),0.5,-11.8,3.7,5.3,-12.7,5.2,6077
Cc1cccc2nc3ccccc3nc12,-11.5,-11.4,14.4,-3.2,13.6,8.5,4363
CCOc1ccc(N2C(=O)/C(=C/c3ccco3)C(=O)NC2=S)cc1,-10.4,-0.6,7.9,-0.4,-18.4,-4.8,2781
CCOC(=O)c1ccc(NC(=O)CCC(=O)OC)cc1,1.8,-60.6,0.5,·,·,1.5,2746
CCCCC(CC)c1nnc(NC(=O)c2cccs2)s1 (stereo not drawn),0.9,-13.7,-0.6,0.7,2.0,-23.5,4224
O=c1c(=Cc2ccccc2)sc2nnc(-c3cccs3)n12,·,·,1.1,-2.3,-4.5,2.6,·
CC(C)COc1cccc(C(=O)NNC(=O)C2COc3ccccc3O2)c1 (stereo not drawn),-16.2,-16.7,7.3,5.1,7.3,14.1,3668
# The list continues.
SMILES,BJeLR viability,PrP UTR inh,RN4220 kill,Mtb hypoxia rep,Mtb hypoxia rep growth,Sa ugtP lethal,Autofluor counter
Cc1nn(Cc2ccc(Cl)cc2)c(C)c1NC(=O)c1c(-c2ccccc2)noc1C,-4.5,-28.8,-3.9,1.4,2.7,-1.2,9502
CN(C)CCN(C(=O)c1cc(Cl)sc1Cl)c1nc2ccc(F)cc2s1,-3.3,-23.4,-0.2,15.1,5.2,10.0,8862
COc1cc(C=NNC(=O)c2cc(-c3ccccc3Cl)nc3ccccc23)cc(OC)c1O,·,·,2.7,2.8,9.0,1.3,·
Cc1ccc(C(=O)Nc2cc(=O)n(C)c(=O)n2C)o1,-10.2,-12.3,5.1,-3.6,3.4,-10.1,22513*
CC(C)CN(C(=O)CN1CCN(S(=O)(=O)c2ccccc2)CC1)c1c(N)n(CC(C)C)c(=O)[nH]c1=O,-1.5,-25.3,0.0,-2.5,1.5,3.8,9558
O=C(CCSc1nc2ccccc2s1)N/N=C/c1c(O)ccc2ccccc12,15.0,9.0,·,·,·,·,2722
CCOc1ccc(-n2ccnc(SCC(=O)NC3CCCC3)c2=O)cc1,-3.1,-19.2,7.1,-2.8,-8.4,6.0,?
O=S(=O)(c1ccc(NC(=S)Nc2ccccc2)cc1)N1CCOCC1,-10.1,-24.2,-1.9,6.8,7.9,10.9,2520
CCOC(=O)c1cc(-c2ccccc2)n(CCC(=O)N2CCN(c3ccccn3)CC2)c1C,-11.7,-23.9,16.0,-4.2,3.6,-0.2,2467
O=C(c1ccncc1)N1c2ccccc2Sc2ccccc21,-6.8,-0.4,·,·,·,·,4557
O=C(Nc1cccc(F)c1)Nc1ccnn1C1CCN(C(=O)c2cscn2)CC1,-6.6,-17.2,0.2,7.2,-4.6,3.7,6005
Cc1cccc(OCc2nc3ccccc3c(=O)n2N)c1,19.8,-28.6,-1.9,2.6,13.5,-0.7,4189

# Single records, from the list above. Screens in order: BJeLR viability | PrP UTR inh | RN4220 kill | Mtb hypoxia rep | Mtb hypoxia rep growth | Sa ugtP lethal | Autofluor counter
# O=S(=O)(c1ccc(NC(=S)Nc2ccccc2)cc1)N1CCOCC1 as listed: -10.1 | -24.2 | -1.9 | 6.8 | 7.9 | 10.9 | 2520
# O=C(c1ccncc1)N1c2ccccc2Sc2ccccc21 as listed: -6.8 | -0.4 | · | · | · | · | 4557
# Cc1ccc(C(=O)Nc2cc(=O)n(C)c(=O)n2C)o1 as listed: -10.2 | -12.3 | 5.1 | -3.6 | 3.4 | -10.1 | 22513*

# (list continues)
SMILES,BJeLR viability,PrP UTR inh,RN4220 kill,Mtb hypoxia rep,Mtb hypoxia rep growth,Sa ugtP lethal,Autofluor counter
COc1ccccc1-c1nn(-c2ccccc2)cc1C(=O)NC1CC1,·,-16.3,-1.5,-8.3,8.6,-2.4,9557
Cc1ccc(S(=O)(=O)Nc2ccsc2C#N)cc1,-0.6,1.5,5.0,24.5,14.7,0.9,2997
O=C(Cc1ccc(Cl)cc1)NNC(=O)C(=O)NC1CCCCC1,·,-12.9,-1.2,3.0,7.0,0.2,3723
CSc1nsc(SCC(=O)N2CCN(c3ccccc3)CC2)n1,-5.8,22.4,-2.0,·,·,-1.3,2805
